From PubChem BioAssay
hNpr1 antagonist: blocks ANP-stimulated signaling of human Npr1 receptor. Potency, µM (highest dose often 46.3 µM), without a hit: at the top dose activity change, negative = inhibition, actives largely listed as inhibitors. HEK293 hNpr1 GloSensor cGMP, ANP-stimulated luminescence. P16066. actives 1.6% (n = 76,000); active = well fitted inhibition curve with a large enough effect; inconclusive = small, poorly fitted or top-dose-only effect; inactive = no such curve, though single readings can be large or run the other way;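 also: nearly all actives have a fitted effect of over 60% in size; nearly all hits also lower the signal before the agonist is added; a reference antagonist and vehicle were the controls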
Target sequence (P16066 whole entry, looked up): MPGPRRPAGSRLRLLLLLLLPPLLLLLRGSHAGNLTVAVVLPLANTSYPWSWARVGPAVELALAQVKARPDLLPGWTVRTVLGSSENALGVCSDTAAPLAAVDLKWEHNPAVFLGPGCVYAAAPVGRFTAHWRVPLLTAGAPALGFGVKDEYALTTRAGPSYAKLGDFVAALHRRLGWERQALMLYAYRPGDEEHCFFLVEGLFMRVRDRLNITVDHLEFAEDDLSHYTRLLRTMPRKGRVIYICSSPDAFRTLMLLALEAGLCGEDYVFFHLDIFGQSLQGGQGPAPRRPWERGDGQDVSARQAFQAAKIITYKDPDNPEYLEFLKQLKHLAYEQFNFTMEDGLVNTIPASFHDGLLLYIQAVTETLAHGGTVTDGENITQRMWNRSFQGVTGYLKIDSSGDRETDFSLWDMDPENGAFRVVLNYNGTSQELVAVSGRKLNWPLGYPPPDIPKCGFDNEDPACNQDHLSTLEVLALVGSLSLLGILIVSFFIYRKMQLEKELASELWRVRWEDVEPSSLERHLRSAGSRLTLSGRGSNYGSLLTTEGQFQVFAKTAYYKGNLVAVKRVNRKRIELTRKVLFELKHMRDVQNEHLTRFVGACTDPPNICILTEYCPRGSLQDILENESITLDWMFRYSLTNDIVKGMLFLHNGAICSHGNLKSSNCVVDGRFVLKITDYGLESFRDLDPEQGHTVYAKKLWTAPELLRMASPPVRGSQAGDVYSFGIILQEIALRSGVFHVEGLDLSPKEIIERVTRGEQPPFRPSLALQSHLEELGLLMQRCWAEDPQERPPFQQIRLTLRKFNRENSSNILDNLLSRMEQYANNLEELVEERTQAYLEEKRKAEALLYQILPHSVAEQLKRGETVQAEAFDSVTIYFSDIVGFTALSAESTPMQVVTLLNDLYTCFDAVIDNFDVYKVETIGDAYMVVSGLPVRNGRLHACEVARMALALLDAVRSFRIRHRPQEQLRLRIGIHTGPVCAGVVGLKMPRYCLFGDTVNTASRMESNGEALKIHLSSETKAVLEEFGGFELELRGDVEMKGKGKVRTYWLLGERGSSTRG
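Compound pre-incubated 30 min at room temperature on GloSensor-loaded HEK293 cells stably carrying hNpr1 and the pGS-40F cGMP biosensor. Stimulation uses hNppA at 0.1 nM final; luminescence is taken at baseline and 20 min post-agonist.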
* = called active by the depositor; u = inconclusive; [ ] = remark or other dose. % is scaled to controls: 0 for no effect and ±100 for the full control effect; potency is read from the fitted curve at half-maximal effect. Not all compounds are listed; the hit share may differ from the screen's.

Start of the listing, in advance:
SMILES	hNpr1 antagonist
O=C(NCc1ccc2c(c1)OCO2)c1nc(-c2cccc(C(F)(F)F)c2)c2cnccn12	0%
O=C1Nc2ccccc2OCC12CCN(Cc1ccc(C(F)(F)F)cc1)CC2	11µM*
Cc1ccc(NC(=O)NC[C@H]2O[C@@H](CC(=O)NCCN(C)C)[C@H](O)[C@@H]2O)cc1	-5%[70.6 µM]
COc1ccccc1-c1cc(N2CCOCC2=O)c2cncn2c1	-9%[70.6 µM]
Cn1nc2n(c1=O)CCN(C(=O)c1ccc(F)cc1Cl)CC2	-2%
Cc1ccncc1C(=O)N1CCCN(C(=O)C2CC2)C(c2ccccc2)CC(=O)NCC1 (configuration not stated)	-7%
COCc1nncn1C1CCN(C(=O)c2ccc(Cl)s2)CC1	1%
CN1CCC2(C1)CN(Cc1ccccc1)c1ccc(C(=O)NC3CC3)cc12 (configuration not stated)	10%[70.6 µM]
Cc1ccc(CNC(=O)NCC2Cn3cccc3C(=O)N2C)cc1 (configuration not stated)	2%
Cc1cc(C(=O)N[C@@H]2CN(Cc3ccccc3)C[C@H]2CN(C)C)nn1C	5%
O=C(NCc1ccccc1)N1CCN(C(=O)N2CC3CC(C2)[C@H]2CCCC(=O)N2C3)CC1 (some centres not stated)	2%
O=C(c1nccc2ccccc12)N1CCC2(CC1)CC(O)CCO2 (configuration not stated)	0%
CN1CCOC[C@H]2CCN(C(=O)c3ccoc3)C[C@H]21	-1%
Cc1[nH]c(=O)[nH]c(=O)c1CN1CCCC(CCc2ccc(F)cc2F)C1 (configuration not stated)	12%
Cc1ccc(C(=O)N2CCCCCCN(C)C(=O)[C@@H]3CCC[C@@H]32)cn1	3%
CCN(CC)C(=O)N1CCCC(c2nc(-c3ccccc3)no2)CCNC(=O)CC1 (configuration not stated)	0%
O=C(NCc1ccc(F)cc1F)c1nnn2c1COC(c1ccc(Br)cc1)C2 (configuration not stated)	-24%
CCOc1ccccc1NC(=O)Cn1c(C)cc2nc3n(c(=O)c21)CCCCC3	1%

The whole of this part, repeating the preview:
SMILES	hNpr1 antagonist
O=C(NCc1ccc2c(c1)OCO2)c1nc(-c2cccc(C(F)(F)F)c2)c2cnccn12	0%
O=C1Nc2ccccc2OCC12CCN(Cc1ccc(C(F)(F)F)cc1)CC2	11µM*
Cc1ccc(NC(=O)NC[C@H]2O[C@@H](CC(=O)NCCN(C)C)[C@H](O)[C@@H]2O)cc1	-5%[70.6 µM]
COc1ccccc1-c1cc(N2CCOCC2=O)c2cncn2c1	-9%[70.6 µM]
Cn1nc2n(c1=O)CCN(C(=O)c1ccc(F)cc1Cl)CC2	-2%
Cc1ccncc1C(=O)N1CCCN(C(=O)C2CC2)C(c2ccccc2)CC(=O)NCC1 (configuration not stated)	-7%
COCc1nncn1C1CCN(C(=O)c2ccc(Cl)s2)CC1	1%
CN1CCC2(C1)CN(Cc1ccccc1)c1ccc(C(=O)NC3CC3)cc12 (configuration not stated)	10%[70.6 µM]
Cc1ccc(CNC(=O)NCC2Cn3cccc3C(=O)N2C)cc1 (configuration not stated)	2%
Cc1cc(C(=O)N[C@@H]2CN(Cc3ccccc3)C[C@H]2CN(C)C)nn1C	5%
O=C(NCc1ccccc1)N1CCN(C(=O)N2CC3CC(C2)[C@H]2CCCC(=O)N2C3)CC1 (some centres not stated)	2%
O=C(c1nccc2ccccc12)N1CCC2(CC1)CC(O)CCO2 (configuration not stated)	0%
CN1CCOC[C@H]2CCN(C(=O)c3ccoc3)C[C@H]21	-1%
Cc1[nH]c(=O)[nH]c(=O)c1CN1CCCC(CCc2ccc(F)cc2F)C1 (configuration not stated)	12%
Cc1ccc(C(=O)N2CCCCCCN(C)C(=O)[C@@H]3CCC[C@@H]32)cn1	3%
CCN(CC)C(=O)N1CCCC(c2nc(-c3ccccc3)no2)CCNC(=O)CC1 (configuration not stated)	0%
O=C(NCc1ccc(F)cc1F)c1nnn2c1COC(c1ccc(Br)cc1)C2 (configuration not stated)	-24%
CCOc1ccccc1NC(=O)Cn1c(C)cc2nc3n(c(=O)c21)CCCCC3	1%
Cn1cccc1C(=O)N1CCC(c2nn(C)c3c2COCC3)CC1	-9%
O=C(NCCc1csc(-c2ccncc2)n1)C1CNCCO1 (configuration not stated)	10%
Cc1cccc(OCCc2noc(C3CN(C4CCN(Cc5ccccc5)CC4)C3)n2)c1	u
CN1[C@@H](CCC(=O)NCc2cccs2)CNC(=O)[C@@H]2[C@H]1CCN2C1CCOCC1	-1%[70.6 µM]
CN(C)c1cccc(C(=O)NCC2CCN(c3cc(-c4ccc(F)cc4)[nH]n3)CC2)c1	-22%
COCCN1CC[C@H]2N(Cc3nc4c(cnn4C)c(=O)[nH]3)CCC[C@]2(C(=O)O)C1	6%
Cc1cc(C2CCCN2C(=O)c2cc(C)c(C)c(S(N)(=O)=O)c2)on1 (configuration not stated)	-17%

More results follow.
SMILES	hNpr1 antagonist
Cc1cccc2nc(C(=O)N3CCC4(CCNCC4)CC3)cn12	4%
O=C(c1ccc(Oc2ccccc2)cc1)N1CCOCC12CCN(Cc1ccccc1)CC2	-19%
O=C(N[C@@H]1CCOC[C@H]1OCCO)c1cc(-c2ccsc2)n[nH]1	1%
O=c1n(-c2ccncc2)nc2n1CCN(Cc1ccc(C(F)(F)F)cc1)C2	16µM*
O=C(CCC1CCN(S(=O)(=O)c2cccc(F)c2)CC1)NCc1ccncc1	-5%
CC(=O)NC1(C)CCCN(c2ccc(Oc3ccccc3)cc2)C1 (configuration not stated)	18µM*
COc1cccc(COC2CN(CCc3ccccc3)C(=O)CN(C(=O)c3cc(C)nn3C)C2)c1 (configuration not stated)	0%
COCC(=O)N(C1CCOCC1)C1CCN(C(=O)Cc2ccc(OC)cc2)CC1	2%
Cc1ccc([S+](=O)([O-])N2CCC3(CC2)CC(=O)N(c2ccccc2)c2ccccc2O3)cc1	-12%
COCCc1noc(-c2ccccc2OC2CN(C(=O)CCn3nc(C)cc3C)C2)n1	3%
COCc1noc([C@@H]2CC(F)(F)CN2C(=O)Cc2ccc(F)cc2)n1	5%
O=C(Nc1cc(F)ccc1F)N1CCCC(Cn2c(C3CC3)nc3cccnc32)C1 (configuration not stated)	-1%
C=CCN(Cc1cccc(OC)c1)C(=O)CCc1cccc(F)c1	-12%
COc1cccc(CN2CCC3(CC2)OC(=O)N(Cc2ccccc2)C3(C)c2ccccc2)c1 (configuration not stated)	-11%
COc1cccc(CC(=O)N2CCC(Oc3ncccc3C(=O)N(C)C)C2)c1 (configuration not stated)	-2%
Cc1ccc(CN2CCC3(CC2)CC(=O)N(c2ccccc2)c2ccccc2O3)cc1	7%
C[C@H](C(=O)N1CCCC1)C1CC[C@@]2(C)Cc3sc(NC(=O)C4CC4)nc3[C@@H](C)[C@@H]2[C@H]1O (some centres not stated)	3%
CCC1CCCCN1CCNC(=O)CCc1cc2ccccc2[nH]c1=O (configuration not stated)	-2%
COc1cccc(C(=O)N2CCC(C(NC(=O)c3cccc(C)c3)C(=O)N3CCCC3)CC2)c1 (configuration not stated)	-10%
Cc1ccc(-c2cc3c(=O)n(CCNC(=O)c4ccc5cc[nH]c5c4)ccn3n2)cc1C	-20%
COCCn1ncc(N2CCCC(CC(=O)NCc3cc(F)cc(F)c3)C2)cc1=O (configuration not stated)	1%
CN(CCc1ccccn1)[C@H]1[C@@H]2OC[C@@H](O2)[C@@H](NC(=O)Nc2cccc(C(F)(F)F)c2)[C@@H]1O	-1%
CCn1c(=O)c2c(cc(C)n2C)n(CC(=O)Nc2c(C)cccc2C)c1=O	-2%
COc1ccc(C(=O)NCC2Cn3cccc3C(=O)N2C)cc1 (configuration not stated)	4%
COC(=O)C1=C(C)N=C2SC=C(CC(=O)NC3CCCCC3)N2C1c1cccc(OC)c1 (configuration not stated)	-20%

Next records
SMILES	hNpr1 antagonist
COc1cc(-c2[nH]ncc2CN(CCO)Cc2cccs2)cc(OC)c1OC	-12%
Cc1nc(CC(=O)N2CC[C@@H](NC(=O)c3cnccn3)[C@H](O)C2)cs1	8%
O=C(O)[C@H](Cn1ccc(=O)[nH]c1=O)NCc1ncc[nH]1	1%[70.6 µM]
O[C@@H]1CC(CNC2CCC2)(COc2ccc(C(F)(F)F)cn2)C[C@@H]1O (some centres not stated)	0%[70.6 µM]
O=C1CCN(C(=O)C2CCN(C(=O)c3ccncc3)CC2)CCCCCCN1	-2%
COC(=O)[C@@H]1Cc2ncn(C)c2CN1C(=O)c1ccc(C#N)cc1	-3%[70.6 µM]
C=CCn1c(-c2ccc(F)cc2)cn2cc(C(=O)N(C)CCO)nc2c1=O	-3%
CCn1ccc(C(=O)NCC2Cn3cccc3C(=O)N2CC(C)C)n1 (configuration not stated)	-17%
COc1ccc(C(=O)N2CCC3(CC2)CC2C(=O)NCCN2C3)c(OC)c1 (configuration not stated)	5%
CCCNC(=O)[C@@H]1Cc2cn(Cc3ccncc3)c3cccc(c23)[C@H](CC(C)C)N1	u
Cc1cnn(CC(=O)N2C[C@@H](COc3ccccc3)[C@H](C(N)=O)C2)c1	-17%
O=C(c1ccoc1)N1CC[C@@H]2[C@@H](CCC(=O)N2CCc2cnc[nH]2)C1	-23%
COC[C@H]1CCCN1Cc1nc(C2(O)CCN(C(=O)CC(C)(C)C)CC2)cs1	4%[70.6 µM]
CC(C)CN1C(=O)c2cccn2CC1C(=O)N1CCOCC1 (configuration not stated)	-10%
COc1cccc(CNC(=O)C2c3ccccc3CC(=O)N2C(C)C)c1 (configuration not stated)	-15%
CN(C(=O)c1cc2ccccc2oc1=O)C1CCCN(CCCc2ccccc2)C1 (configuration not stated)	0%
COc1ccc(CC(=O)N2[C@@H]3CC[C@H]2CC(NC(=O)c2ccncc2)C3)cc1OC (some centres not stated)	3%
Cc1cc(C(=O)N2C[C@@H]3CCCN4CCC[C@@H]([C@H]34)[C@H]2CCCC(=O)N2CCOCC2)nn1C	-2%
CN1C(=O)C(CC(=O)N2CCCCC2)Sc2ncccc21 (configuration not stated)	2%
COC(=O)[C@@H]1Cc2c([nH]c3ccccc23)[C@H]2C[C@@H](NCCO)C[C@@H](c3cccc(OC)c3)N21	1%
CC1=NS(=O)(=O)N(C)C=C1C(=O)O	-2%
COc1ccc(NC(=O)C2CCN(c3cc(C(F)(F)F)ncn3)CC2)cc1Cl	u
CC(=O)c1ccc(NC(=O)N[C@H]2CO[C@H]3[C@@H]2OC[C@@H]3n2nnnc2Oc2cccc(N(C)C)c2)cc1	-28%
CC(C)n1c(C2CCCN(C(=O)c3ccco3)C2)nn(C)c1=O (configuration not stated)	-16%
CCOc1ccc(NC(=O)C2CCCN(c3cnn(C)c(=O)c3)C2)cc1 (configuration not stated)	-10%

(cont.)
SMILES	hNpr1 antagonist
CCCN(CC1CCOC1)S(=O)(=O)c1cccc(Br)c1 (configuration not stated)	1%
COc1ccc(C(=O)N2CCc3ccc(C(=O)NCc4ccc(C)o4)cc32)cc1	-2%
COc1ccc(C(CC(=O)N2CCC(Cc3ccccc3)CC2)c2c[nH]c3ccccc23)cc1OC (configuration not stated)	-17%
COc1ccc(N2CCN(C(=O)CCc3ccnc(N4CCOCC4)c3)CC2)cc1	-21%
O=C1NC2CCCCC2=C1CC(=O)N1CCCCC1 (configuration not stated)	3%
CNc1ncc(CN(C)c2cc(C3CC(N)C3)nc(COC)n2)cn1 (configuration not stated)	2%
CN1C[C@H](NC2CCC2)CCC[C@@H](C(=O)NC2CC2)CC1=O	-1%[70.6 µM]
Clc1cccc(N2CCN(C3CCCN(CCCc4ccccc4)C3)CC2)c1 (configuration not stated)	1%
O=C(NCCc1noc(-c2ccncc2)n1)c1n[nH]c2c1CCCCCC2	-2%
CS(=O)(=O)N1CCOc2ccc(CCC(=O)NCC3CCCO3)cc2C1 (configuration not stated)	10%
COCC(=O)NC1CCC12CCN(C(=O)C1(c3ccccc3)CC1)CC2 (configuration not stated)	0%
COc1cccc(C(=O)N2CCC(N(C(C)=O)C3CCOCC3)CC2)c1	-7%
COc1cccc(CCC(=O)Nc2ccc3c(c2)CCC(=O)N3C)c1	5%
COc1ccc(N2CCN(c3nc(C(=O)NCc4ccc(F)cc4F)cs3)CC2)cc1	u
CN1c2cc(C(=O)Nc3cccc(C#N)c3)ccc2C(=O)N2CCCCCC21 (configuration not stated)	0%
CC(C)(O)CCc1cccc(C(=O)NCc2ccccc2Cn2cccn2)c1	-11%
O=C(NC1CCCC1)N1CCC2(CC1)CC(N(Cc1ccc(F)cc1)C1CC1)CCO2 (configuration not stated)	23%
Cc1ccc(OCCC2CCNC2)cc1 (configuration not stated)	-2%
Cn1cc([C@@H](NC(=O)c2ccccc2N2CCCC2)C2CC(O)C2)cn1 (some centres not stated)	-8%
O=C(NCC1CCOCC1)C1c2ccccc2C(=O)N(C2CCCCC2)C12CCCCC2 (configuration not stated)	2%
CC(C)c1nnc(C2CN(C(=O)c3cccs3)CC23CCOCC3)o1 (configuration not stated)	2%
COC[C@@H]1CN(Cc2ccc(OC)cc2OC)C[C@H]1C(=O)NC1CC1	3%
COc1ccc(NC(=O)c2nnn3c2COC(c2ccc(F)cc2)C3)cc1Cl (configuration not stated)	0%
OC1(c2csc(CN3CCOCC3)n2)CCN(Cc2ccc(F)cc2)CC1	-2%[70.6 µM]
O=C(CCC1CCCN(S(=O)(=O)c2ccccc2F)C1)NC1CCCCC1 (configuration not stated)	u

(list continues)
SMILES	hNpr1 antagonist
COc1ccc(S(=O)(=O)Nc2ccc(C)n(CC(=O)NCc3ccc(C)o3)c2=O)cc1	-4%
O=C(c1ccc(Oc2ccccc2)cc1)N1CCNc2cnc(Nc3cccnc3)nc2C1	u
Cc1cnc(C(=O)NC2C[C@H]3CC[C@@H](C2)N3C(=O)c2ccnn2C)cn1 (some centres not stated)	-1%
CC(C)N1C(=O)C2(CCCCC2)C1C(=O)NCCN1CCCC1 (configuration not stated)	-2%
CCCS(=O)(=O)N1CCCC1C(=O)Nc1ccccc1-c1ccc(OC)cc1 (configuration not stated)	1%
COc1cc(-c2cc(C)c3c(OC)ccc(OC)c3n2)cc2c1OCCNC2	u
